Screening results: PubChem, several laboratories
Autofluor counter: counter-screen for toxin protease inhibitors: compound fluorescence. compound autofluorescence counterscreen, microsphere flow cytometry; stronger effect = higher value. fluorescence intensity (no concentration beside the values). 3.1% of 360,000 active;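 active means at least 3 SD above the mean of all compounds, about 16000 in these data; inconclusive means too few beads counted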;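 further: 100 nL of 1 mM stock went into each well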
RN4220 kill: growth inhibition of S. aureus RN4220, primary screen, OD600. inhibition, % (concentration not given with the values). AID 1259311, 2017. 16 h. 0.33% of 330,000 active;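 active means z-score of -3 or lower and OD600 up to 0.18 on both plates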;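 further: plate controls were untreated cells for no effect and reference antibiotic for full effect; stock transfer was 100 nL into about 80 µL; one replicate is shown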
PrP UTR inh: inhibition of PrP 5' UTR reporter expression. cell-based PrP 5' UTR mRNA reporter, plate reader. inhibition, % (no concentration beside the values). 0.35% of 340,000 active;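 active means every replicate at 50% or more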;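 further: 0 = median of the neutral control wells; tested in H4 reporter cells; numbers are from one replicate; inactives centre near -14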
ugtP null kill: growth inhibition of ugtP-null S. aureus, primary screen, RN4220 ugtP deletion, OD600; 16 h; some inactives read as strong as hits; growth inhibition, % (concentration not given with the values); 0.54% of 330,000 active; AID 1259309, 2017;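 active means z-score under -3 and OD600 up to 0.15 on both plates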;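 further: plate controls were untreated wells for no effect and antibiotic for full effect; wells of about 80 µL received 100 nL stock; the first replicate is given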
Mtb hypoxia inh: PubChem AID 1159583; M. tuberculosis hypoxia-regulated fluorescent reporter, fluorescence; fluorescence inhibition, % (concentration not given with the values); 0.1% of 300,000 active;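 active means 35 to 45% if threefold the growth effect, above 45% if 1.5-fold the growth effect; inactive means the rest, general growth blockers included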;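 further: wells of about 50 µL received 100 nL stock; 0% = vehicle wells and 100% = reference inhibitor wells; whole bacteria with a GFP reporter of the hypoxia response; strong numbers were not always called active; many hits fall short of the cut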
BJeLR lethal: MLPCN primary cell-based screen for lethality selective to Ras in HRASV12 cells. BJeLR (HRASV12) viability, CellTiter-Glo ATP luminescence, 48 h; reference of the scale not given here. inhibition, % (concentration not given with the values). 0.17% of 300,000 active;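 active means replicate mean above 50%; inconclusive means above 50% but judged a plate artefact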;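 further: 50 nL library stock added to about 25 µL; numbers are from one replicate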
Mtb hypoxia inh growth: second read-out of Mtb hypoxia inh, no call of its own (marks repeat the call); growth inhibition, %; measured here: M. tuberculosis growth (absorbance);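 0% = vehicle and 100% = reference antibiotic; read after six days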
The depositor's hits bear a star; ? = inconclusive; nt = no result given. Hits appear at their usual frequency; 4% or so of the library scored in one or more.

SMILES,Autofluor counter,RN4220 kill,PrP UTR inh,ugtP null kill,Mtb hypoxia inh,Mtb hypoxia inh growth,BJeLR lethal
Cc1cc([N+](=O)[O-])ccc1NC(=O)C(C)[n+]1ccccc1 (configuration not stated),2481,5.3,-9.4,7.8,2.7,5.5,4.9
CC(C)N1CCC(NC(=O)NC2CCCCC2)CC1,2426,3.1,-3.8,-0.6,20.0,0.5,-1.3
COc1cccc(/C=N/NC(=O)c2ccc(N(C)S(=O)(=O)c3ccccc3)cc2)c1OC,2035,nt,2.8,nt,nt,nt,3.0
O=C(Nc1nc2c(Cl)cccc2s1)C1CC1,5321,6.5,-29.8,-12.6,0.6,-0.1,-0.3
Cc1noc(/C=C/Nc2ccc(F)cc2F)c1[N+](=O)[O-],2115,nt,-107.6,nt,nt,nt,1.5
Cc1ccc(NC(=O)CN(C)C(=O)c2ccccc2OCc2c(C)noc2C)cc1,?,4.9,-15.3,5.0,-0.6,4.4,-14.5
Cc1ccc(CN2CCN(CC3CC4C=CC3C4)CC2)cc1 (configuration not stated),2982,-12.9,-9.8,2.2,20.4,8.5,-1.4
CCC(C)C(NC(=O)[C@@H](NC(=O)c1ccccc1F)C(C)C)C(=O)OC (some centres not stated),4001,0.4,-24.0,7.4,12.7,9.3,-8.4
O=C(Cc1ccc(Cl)cc1)Nc1cc(Cl)ccn1,5617,-1.5,-49.1,20.9,nt,nt,15.1
Cc1nc(-c2ccc(S(=O)(=O)Oc3ccc(Cl)cc3Cl)s2)cs1,3641,8.5,-6.4,34.2,11.6,5.5,-3.9
CC(C)NC(=O)N1CCN(c2ccncc2S(=O)(=O)N2CCOCC2)CC1,3554,0.4,-11.2,5.5,nt,nt,1.1
O=C(NCc1cccnc1)c1cccc(F)c1,2478,-15.1,-12.1,-2.4,-2.5,4.7,9.4
CCCCOc1ccc(C(=O)NNC(=O)C2C3C=CC(C3)C2C(=O)O)cc1 (configuration not stated),5656,5.0,-24.4,5.9,7.9,14.1,8.2
N#Cc1c(-c2ccco2)cc(-c2ccccn2)nc1N,2072,8.0,-12.9,-11.2,nt,nt,8.6
Cc1ccc2c(c1)C=CC(C)(C)S2=O (configuration not stated),2434,7.4,-17.2,6.3,10.9,0.6,-5.4
CN(C(=O)COC(=O)/C=C/c1ccc(F)cc1)c1c(N)n(Cc2ccccc2)c(=O)[nH]c1=O,nt,-1.2,9.8,-4.5,-3.8,-4.9,-6.7
CC(=O)Nc1nc(C)nc(-c2ccccc2OC(C)=O)n1,10447,8.0,-22.1,2.5,8.3,1.4,1.6
Cc1ccc(-c2csc3nnc(SCc4csc(C)n4)n23)cc1,9826,11.1,nt,-8.7,5.1,9.5,-7.2
CCO[C@H]1OC(C(=O)NC2CC2)=C[C@@H](c2csc3ccccc23)[C@@H]1CCCO,3927,nt,-24.7,nt,nt,nt,-4.1
c1ccc(CSc2nnc3ccc(-c4ccncc4)nn23)nc1,4300,2.8,-20.8,10.0,5.1,13.6,8.6
C=CCSc1nnc(NC(=O)CCN2C(=O)C3CC=CCC3C2=O)s1 (configuration not stated),6211,2.3,-28.4,3.0,4.1,2.5,nt
COc1ccccc1NC(=O)CN1CCN(CC(=O)Nc2ccc3c(c2)OCO3)CC1,2702,0.2,-33.3,-0.5,nt,nt,nt
Cc1cc(NC(=O)CCCn2ccc([N+](=O)[O-])n2)n(Cc2ccc(F)cc2)n1,6037,-3.3,-6.6,-4.4,1.9,2.0,3.6
C#CCNS(=O)(=O)c1ccc(F)cc1Br,2996,3.3,5.3,1.8,-14.8,-15.1,nt
CN(CC(=O)NC1CCCCC1)S(=O)(=O)c1cccc2cccnc12,4066,-2.3,-9.1,-1.2,nt,nt,-0.1
O=C(c1ccc2nc(-c3ccccc3)c(-c3ccccc3)nc2c1)N1CCCCC1,5144,10.2,-0.7,8.1,2.1,3.1,4.3
O=C(CCn1c(=O)oc2ccccc21)NCc1ccco1,5692,-9.4,-13.4,-4.8,9.2,5.2,-0.5
CCCCCCn1c(C)nc2c(c1=O)c1nc3ccccc3nc1n2/N=C/c1ccco1,9397,nt,-32.8,nt,nt,nt,-1.1
O=C(CC(Nc1ccccc1)c1ccccc1)C1CC1 (configuration not stated),6283,4.9,-10.4,11.7,13.0,12.9,1.0
CN(CC(=O)Nc1cccc(F)c1)C(=O)c1ccc(OCC2CCCO2)cc1 (configuration not stated),5772,0.9,-15.9,3.6,5.7,6.4,-6.4
O=C(Cc1ccc(NC(=O)C2CCN(C(=O)C3CC3)CC2)cc1)Nc1cccc(C(=O)N2CCCCC2)c1,3614,2.3,-13.3,0.9,1.4,2.9,nt
CCc1ccc(N2NC(=O)/C(=C/C=C/c3ccco3)C2=O)cc1,2399,3.5,-5.3,-4.6,3.0,13.5,2.7
Cc1ccccc1NC(=O)C1(C)Cc2ccccc2C(=O)O1 (configuration not stated),4593,-0.2,-19.6,8.8,nt,nt,-3.9
C/C(=N\N(Cc1ccccc1)c1ccccc1)c1cccnc1,4072,nt,-21.7,nt,nt,nt,-21.6
Cc1ccc(NC(=O)Cn2cnc3sc(C(=O)NCCN(C)C)c(C)c3c2=O)cc1Cl,nt,-3.1,nt,-3.8,-6.7,0.0,-11.4
COc1cc(C(C)=O)ccc1OCC(O)CN1CCN(c2ccc(C)c(C)c2)CC1 (configuration not stated),3115,2.5,-27.5,7.3,5.9,4.2,-7.5
O=C(O)CCCC(=O)Nc1ccc(C(=O)N2CCCCC2)cc1,8593,2.3,-24.1,20.0,1.0,1.3,-4.4
Cc1c(NC(=O)c2ccc3c(c2)OCO3)cccc1-c1nc2ccccc2s1,7664,4.9,-16.3,-0.5,-1.2,3.3,6.8
O=C(Nc1ccc(S(=O)(=O)N2CCCC2)cc1)Nc1ccc(F)cc1F,nt,10.3,-15.3,7.5,8.4,1.0,0.4
Cc1cc(=O)oc2c3c(cc(OCC(=O)NC(C)C)c12)OC(C)(C)CC3,3135,3.1,4.2,1.8,-7.2,-10.6,-5.1
CCc1nc2n[nH]c(N)c2c2c1CSC(C)(C)C2,4675,1.6,-7.7,5.6,3.8,-1.2,0.2
C=CCOc1c(/C=N\NC(N)=O)cccc1OC,4066,nt,3.3,nt,nt,nt,-2.9
Cn1nnc2cc(C(=O)Nc3ccc(Cl)cc3)ccc21,2584,5.0,-38.8,5.1,7.9,8.3,-4.3
CS/C(N)=N/N=Cc1cc(C)ccc1O,nt,8.1,nt,2.7,11.6,4.8,nt
N#Cc1ccc(C23CC4(C2)C(CN(Cc2ccc(-c5ccccc5)cc2)C4c2ccccc2)C3c2ccccc2)cc1 (configuration not stated),nt,5.1,nt,-5.0,0.9,9.4,nt
CN(Cc1cccnc1)Cc1cn(Cc2ccccc2)nc1-c1ccc2c(c1)OCO2,2640,1.5,-5.0,9.6,11.2,5.1,0.3
O=[N+]([O-])CC1(n2nc3ccccc3n2)CCCCC1,3777,nt,-11.0,nt,nt,nt,0.9
Cc1ccc(/C(O)=C2/C(=O)C(=O)N(c3ccccn3)C2c2cccc([N+](=O)[O-])c2)cc1 (configuration not stated),2908,2.9,-12.5,4.5,-5.1,2.3,-3.9
CC1CCc2c(sc3nc(SCC(=O)NCc4ccco4)nc(N)c23)C1 (configuration not stated),4875,-4.2,-12.0,-13.8,nt,nt,-2.1
Cc1c(C(=O)OCc2ccccc2)[nH]c2c1C(=O)CC(c1ccco1)C2 (configuration not stated),6087,3.0,62.2*,9.1,nt,nt,25.3
O=C(NC1CCCCC1)C(c1cc2c(cc1[N+](=O)[O-])OCO2)N1CCCCC1 (configuration not stated),nt,-2.2,nt,-0.2,6.7,17.5,-1.6
COc1ccc(C=NNC(=O)CCCOc2ccc(Cl)cc2Cl)cc1,nt,-0.9,nt,-15.0,9.2,7.8,nt
CCC(C)[C@H](NC(=O)N1CC(=O)Nc2ccccc21)C(=O)N[C@H](Cc1c[nH]c2ccccc12)C(=O)O (some centres not stated),5123,0.9,-14.5,9.7,nt,nt,-1.0
Cc1cccc(COCC(Cc2ccccc2)N2CCN(C(=O)c3cccc(Cl)c3)CCC2=O)c1 (configuration not stated),2825,1.1,-11.5,2.5,9.1,4.0,-8.8
CCN(CC)CC1CN(N=Cc2ccc([N+](=O)[O-])o2)C(=O)O1 (configuration not stated),3485,23.9,-4.9,41.9,11.6,8.4,nt
COc1cccc(NC(=O)C2CCN(C(=O)[C@@H]3Cc4ccccc4CN3C(=O)OC(C)(C)C)CC2)c1,4312,17.9,-2.9,-15.2,-3.5,-8.3,1.8
COc1ccc(CCNC(=O)c2ccc(CNc3nc(=S)[nH]c4ccccc34)cc2)cc1OC,4486,-9.5,-19.0,-2.2,0.0,-1.2,2.9
CCCCCC(=NO)c1c(C)[nH]c2ccccc12,nt,2.3,nt,-19.4,8.9,5.4,nt
COc1ccc(-c2nnc(SCc3nc4ccccc4c(=O)[nH]3)o2)cc1,5792,4.7,-10.9,0.3,-3.7,3.9,12.9
CN(C)Cc1c(O)ccc2cc(-c3nc4ccccc4n3C)c(=O)oc12,4382,3.6,-6.7,1.5,-3.3,6.0,-14.0

Further entries.
SMILES,Autofluor counter,RN4220 kill,PrP UTR inh,ugtP null kill,Mtb hypoxia inh,Mtb hypoxia inh growth,BJeLR lethal
COC(=O)CSc1nc2ccccc2c(=O)n1Cc1ccccc1,3574,2.7,5.4,3.9,5.9,20.4,3.0
O=C(O)/C=C/C(=O)Nc1ccc(F)cc1F,10317,3.4,-18.4,-1.2,0.7,3.2,2.3
CCCCCC(=O)Nc1ccc(-c2csc(C)n2)cc1,2468,9.6,-42.7,-2.6,8.4,7.0,7.0
COc1ccc(NC2=CC(=O)CC(c3ccccc3)C2)c(OC)c1 (configuration not stated),8133,6.3,-22.7,10.9,3.1,-5.8,16.7
Cn1c(=O)[nH]c(=O)c2c1nc(SCC(=O)Nc1ccccc1)n2Cc1ccccc1,5373,6.0,-31.1,-6.6,-2.1,-8.4,-3.2
CCCc1c(C(=O)N/N=C/c2cccc3ccccc23)nnn1-c1nonc1N,5581,nt,-7.0,nt,nt,nt,3.0
Cc1ccc(C)c(S(=O)(=O)N2CCCOC2CNC(=O)C(=O)NCCc2ccccc2)c1 (configuration not stated),6147,2.8,-11.7,4.0,0.2,12.8,-5.3
CCC(C)c1ccc(C(CC)NC(=O)C2CCCO2)cc1 (configuration not stated),nt,6.5,-26.9,7.6,0.9,5.0,2.7
Cc1ccc(C)c(NC(=O)COc2cccc3c2CCN(Cc2ccccc2)C3=O)c1,2006,2.5,-11.9,-5.1,1.3,12.0,2.8
Cc1cc(F)ccc1S(=O)(=O)NCC(c1ccc2c(c1)OCO2)N1CCOCC1 (configuration not stated),?,3.6,-6.8,0.8,-1.7,-4.1,7.7
C#CCOC(=O)Nc1cccn(Cc2c(Cl)cccc2Cl)c1=O,16958*,3.9,-31.7,1.1,10.1,4.6,-1.5
CC(=O)n1cc(C2C=C(C(=O)N3CCN(C)CC3)OC(OCc3ccc(CO)cc3)C2)c2ccccc21 (configuration not stated),nt,2.8,nt,-0.9,-9.8,-10.8,nt
Cn1c(=O)c2[nH]c(NN=Cc3ccc(Br)cc3)nc2n(C)c1=O,3976,0.8,-15.2,-6.5,-7.6,-3.1,nt
